# NS1 inh – influenza NS1 inhibition | S. cerevisiae slowed by influenza A NS1, growth recovery by OD600 | Potency, µM (doses to about 46.1 µM), for inactives: at the top dose activity, positive = more growth | actives 0.4% (n = 270,000); active means well fitted rising curve with a large enough effect; inconclusive means small, poorly fitted or top-dose-only effect; inactive means no such curve, though single readings can be large or run the other way; note: nearly all actives have a fitted effect of over 50% in size
#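 S. cerevisiae expressing influenza A NS1, grown in glucose, washed, then diluted 1:100 into pH 6.0 -URA galactose medium with 23 nl compound. Growth recovery read as OD600; NS1-free strain serves as control.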
# Cruzain Triton – blocks cruzain activity in presence of Triton detergent; P25779; purified cruzain, Z-FR-AMC fluorescence, 0.01% Triton; Potency, µM, for inactives: max response, negative = inhibition, usual class: inhibitors; actives 0.43% (n = 200,000); AID 1478;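 note: plate controls were neutral wells for no effect and buffer without enzyme for full effect; nearly all actives have a fitted effect of over 40% in size; top concentration of the series not given in the record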
# Target sequence (P25779 123-467 limits assumed): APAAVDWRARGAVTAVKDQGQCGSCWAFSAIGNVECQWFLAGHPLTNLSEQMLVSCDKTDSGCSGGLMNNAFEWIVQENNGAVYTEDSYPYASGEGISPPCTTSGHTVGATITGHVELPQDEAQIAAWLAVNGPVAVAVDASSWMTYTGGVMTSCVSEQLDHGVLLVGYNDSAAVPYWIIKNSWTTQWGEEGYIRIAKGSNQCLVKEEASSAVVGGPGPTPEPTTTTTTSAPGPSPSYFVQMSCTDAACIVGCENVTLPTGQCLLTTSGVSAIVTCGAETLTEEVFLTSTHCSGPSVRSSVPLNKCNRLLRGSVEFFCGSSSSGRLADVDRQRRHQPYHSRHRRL
#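 Read-out: AMC fluorescence (360 nm excitation, 450 nm emission), four reads over 2 min, first-to-third difference used. Conditions: cruzain 1.5 nM, Z-FR-AMC 2 uM, pH 5.5 acetate, 5 mM DTT, 0.01% Triton X-100.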
# Cruzain noTriton – cruzain (T. cruzi) inhibition without detergent | Potency, µM, for inactives: max response, negative = inhibition, hits mostly inhibitors | P25779 | actives 2.3% (n = 200,000) | AID 1476 | purified cruzain, Z-FR-AMC fluorescence, no detergent;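 note: plate controls were enzyme without inhibitor for no effect and buffer without enzyme for full effect; nearly all actives have a fitted effect of over 40% in size; top concentration of the series not given in the record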
#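 Purified cruzain at 1.5 nM, pre-incubated 15 min with compound at room temperature in 100 mM sodium acetate pH 5.5, 5 mM DTT, 0.00005% Triton X-100. Reaction started with 2 uM Z-FR-AMC; AMC fluorescence increase over 60 s gives rate.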
# Lassa entry inh – inhibitors of Lassa virus binding or cell entry; Lassa virus pseudotype entry inhibition, cell reporter; control for the full effect not named in the record; Potency, µM (series often up to 37.9 µM), without a hit: top-dose activity change, negative = inhibition, hits mostly inhibitors; actives 1.2% (n = 300,000); active means well fitted inhibition curve with a large enough effect; inconclusive means small, poorly fitted or top-dose-only effect, or effect the other way; inactive means flat fitted curve, though single readings scatter; tested in HEK293 cells; note: % is set by controls: 0 for no effect and ±100 for the full control effect; nearly all actives have a fitted effect of over 50% in size; luciferase read-out
# RE007 growth inh – less growth of the S. pombe RE007 Vpr strain; S. pombe RE007 Vpr strain, BacTiter-Glo ATP luminescence, 24 h; control for the full effect not named in the record; actives 0.21% (n = 360,000); AID 651644; Potency, µM (doses to about 92.2 µM), without a hit: at the highest dose activity change, negative = less growth; active = well fitted falling curve with a large enough effect; inconclusive = small, poorly fitted or top-dose-only effect; inactive = no such curve, though single readings can be large or run the other way;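 note: % is set by controls: 0 for no effect and ±100 for the full control effect; nearly all actives have a fitted effect of over 50% in size; the assay follows cell death caused by Vpr and the record does not say whether a fall means rescue or toxicity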
#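 Fission yeast strain RE007, carrying one chromosomally integrated HIV-1 vpr copy, was seeded at OD 0.01 in PMG+AL medium with 23 nL pinned compound. After 24 h at 30 °C and 99% humidity, viability was read by BacTiter-Glo luminescence.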
# 2A StopGo – lowers the luciferase signal of an FMDV 2A StopGo reporter; human cells with a luciferase reporter of 2A StopGo recoding; control for the full effect not named in the record; Potency, µM (top dose mostly 57.9 µM), for the others: at the highest dose signal change, negative = less light; actives 1.2% (n = 410,000); active = well fitted falling curve with a large enough effect; inconclusive = small, poorly fitted or top-dose-only effect; inactive = no such curve, though single readings can be large or run the other way; tested in HEK293T cells; note: % is set by controls: 0 for no effect and ±100 for the full control effect; nearly all actives have a fitted effect of over 45% in size; luciferase light after 4 h
# MARV entry inh – Marburg virus entry inhibition. Marburg virus pseudotyped entry inhibition, cell reporter; control for the full effect not named in the record; about a third of the inactives were read at about 46 µM. Potency, µM (top dose mostly 37.8 µM), without a hit: at the top dose activity change, negative = inhibition, hits mostly inhibitors. actives 1.8% (n = 300,000). AID 540276; active = well fitted inhibition curve with a large enough effect; inconclusive = small, poorly fitted or top-dose-only effect, or effect the other way; inactive = flat fitted curve, though single readings scatter; tested in HEK293 cells; about a fifth of its hits are not listed in these tables; note: % is set by controls: 0 for no effect and ±100 for the full control effect; luciferase read-out
# SARS PLpro yeast – SARS-CoV PLP inhibition in yeast; S. cerevisiae expressing SARS-CoV PLpro, growth rescue; control for the full effect not named in the record; Potency, µM (titrated, usually from 32.9 µM), for inactives: at the top dose activity, positive = growth rescue; actives 0.19% (n = 330,000); active means well fitted rising curve with a large enough effect; inconclusive means small, poorly fitted or top-dose-only effect; inactive means no such curve, though single readings can be large or run the other way; note: 0% is about no effect; nearly all actives have a fitted effect of over 55% in size; growth read by luminescence after 48 h
# * = called active by the depositor; u = inconclusive; x = not tested or not shown; & = joins results of further samples; [ ] = dose if it differs, or a comment. Unless noted, calls come from the whole dose curve; as a rule, active = well fitted curve in the direction sought with a large enough effect; inconclusive = small, poorly fitted or top-dose-only effect, or another doubt; inactive = no such curve, though single readings can be large; an effect the other way counts as inactive or inconclusive. Potency is the fitted concentration of half-maximal effect. Outcome played no part in choosing rows, and some 4.7% of all compounds hit somewhere here.
# Sample of the layout (3 entries):
nr	SMILES	RE007 growth inh	NS1 inh	2A StopGo	MARV entry inh
1	O=C(c1ccccc1Oc1ccccc1)N1CCN(c2ccccc2F)CC1	-9%	-57%	u	u
2	Cc1occc1C(=O)Nc1ccc(Br)cc1F	-19%	-16%	51%[activator]	8%
3	CCCCn1c(=O)n(CC(=O)NCc2ccc(C)cc2)c(=O)c2c1nc(CO)n2CCC	5%	-5%	-14%	-4%&-4%

nr	SARS PLpro yeast	Cruzain noTriton	Cruzain Triton	Lassa entry inh
1	-23%	2%	-4.9%	-11%
2	-16%	-8%	-4.5%	11%
3	1%	6%	2.0%	-26%

# Results, from the first entry:
nr	SMILES	RE007 growth inh	NS1 inh	2A StopGo	MARV entry inh
1	O=C(c1ccccc1Oc1ccccc1)N1CCN(c2ccccc2F)CC1	-9%	-57%	u	u
2	Cc1occc1C(=O)Nc1ccc(Br)cc1F	-19%	-16%	51%[activator]	8%
3	CCCCn1c(=O)n(CC(=O)NCc2ccc(C)cc2)c(=O)c2c1nc(CO)n2CCC	5%	-5%	-14%	-4%&-4%
4	CCCc1nn(-c2cc(Cl)ccc2OC)c2c1C(=O)CC(C)(C)C2	5%	-25%	u	x
5	COc1ccc(CCNC(=O)C2CC2)cc1	2%	x	-2%	1%[46.1 µM]
6	Cn1c2ccccc2c2c(C(=O)N3CCC4(CC3)OCCO4)cn(C3CCCC3)c(=O)c21	11%	4%	6%	u
7	Cc1ccnc(S(=O)(=O)Cc2ccc([N+](=O)[O-])cc2)n1	9%	-3%	-8%	x
8	CCCCNC(=O)CCCN1C(=O)c2ccccc2Sc2ncccc21	x	x	-4%	x
9	CC(C)(C)OC(=O)N1CCC(c2c(C(=O)NC3CCCCC3)cnn2-c2cccc(Cl)c2)CC1	x	x	-12%	x
10	Cn1cc(C(=O)N2CCc3ccccc3C2)c(=O)c2cc(S(=O)(=O)N3CCOCC3)ccc21	11%	x	15%	4%[46.1 µM]

nr	SARS PLpro yeast	Cruzain noTriton	Cruzain Triton	Lassa entry inh
1	-23%	2%	-4.9%	-11%
2	-16%	-8%	-4.5%	11%
3	1%	6%	2.0%	-26%
4	3%	9%	-1.7%	x
5	x	x	x	21%
6	3%	3%	-13%	5%
7	-1%	x	x	x
8	x	8%	-0.6%	-3%[46.1 µM]
9	x	8%	-6.0%	-20%[46.1 µM]
10	-1%	x	x	17%[46.1 µM]

# Additional results follow:
nr	SMILES	RE007 growth inh	NS1 inh	2A StopGo	MARV entry inh
11	Cn1c(-c2cc(Br)ccc2O)n[nH]c1=S	-3%	-14%[9.22 µM]	x	5%
12	CCOc1ccc(CNc2cc(C)nc3nc(-c4cccc(C)c4)nn23)cc1OC	x	x	10%	x
13	CC1(C)CNC(=O)c2sc(NC(=O)c3ccccc3)nc2C1	2%	x	40%[activator]	7%[46.1 µM]
14	COc1ccc(C2=NN(C(C#N)c3ccc(OC)cc3)C(c3ccccc3)C2)cc1 (stereo unspecified)	u	-35%	23%	u
15	COc1ccc(-c2csc(NC3OC(=O)c4c3ccc(OC)c4OC)n2)cc1OC (stereo unspecified)	5%	3%	u	u
16	Cc1cn(C2CCCCO2)c(=O)[nH]c1=O (stereo unspecified)	-12%	x	0%	4%[46.1 µM]
17	COc1cc(S(=O)(=O)n2cnc3ccccc32)ccc1Br	2%	-12%	2%	x
18	CCOc1ccc(NS(=O)(=O)c2cccc(C(=O)N3CCN(C/C=C/c4ccccc4)CC3)c2)cc1	27%	x	28µM*	u
19	O=C1C(=Cc2ccc(Br)o2)C(=O)c2ccccc21	-20%	18%	-9%	u
20	N#CCSc1ccccc1NC(=O)CN1C(=O)C2CC=CCC2C1=O (stereo unspecified)	0%	x	-22%	-9%[46.1 µM]

nr	SARS PLpro yeast	Cruzain noTriton	Cruzain Triton	Lassa entry inh
11	-6%	-4%	2.3%	u
12	x	u	-4.5%	-19%[46.1 µM]
13	-4%	x	x	2%
14	-9%	u	-3.9%	u
15	1%	x	x	-11%
16	x	x	x	-1%[46.1 µM]
17	-4%	x	x	x
18	x	x	x	u
19	5%	2%	-23%	6%
20	2%	x	x	25%

# (listing goes on)
nr	SMILES	RE007 growth inh	NS1 inh	2A StopGo	MARV entry inh
21	CCN(CC)c1ccc(C=Nc2ccccc2)c(O)c1	-22%	-2%	28%	u
22	Cc1occc1C(=O)Nc1ccccc1C(=O)O	-8%	-88%	10%	13%
23	S=c1[nH]nc2nnc3ccccc3n12	-23%	6%	-4%	u
24	Cc1ccc(NC(=O)Cc2csc(C)n2)c(C)c1	x	x	7%	28%[46.1 µM]
25	CCC(CC)C(=O)Nc1cccc(C(=O)N2CCCC2)c1	5%	-3%	x	12%
26	Cc1c(C(=O)O)oc2c1C(=O)CC(C)(C)C2	4%	0%	-6%	15%
27	Cc1ccc2nsnc2c1S(=O)(=O)N(CCO)Cc1cc2cc3c(cc2[nH]c1=O)OCCO3	12%	-12%	-3%	-25%
28	COc1ccccc1CNC(=O)CN1C(=O)NC(c2ccccc2)(c2ccccc2)C1=O	24%	x	-13%	-14%[46.1 µM]
29	COc1cc(OC)c(OC)cc1CN(C)CC1CCCN(CCc2ccccc2F)C1 (stereo unspecified)	-10%	-2%	0%	x
30	CCOC(=O)Nc1ccc(C(=O)/C=C/c2ccccc2)cc1	0%	-43%	-3%	u

nr	SARS PLpro yeast	Cruzain noTriton	Cruzain Triton	Lassa entry inh
21	-1%	-6%	-10%	0%
22	-3%	-11%	0.9%	18%
23	0%	x	x	-2%[46.1 µM]
24	x	-11%	0.0%	19%[46.1 µM]
25	7%	11%	1.1%	-1%
26	-3%	x	x	0%[46.1 µM]
27	-2%	-2%	-3.1%	-1%
28	12%	x	x	-28%[46.1 µM]
29	5%	x	x	x
30	-4%	x	x	-2%[46.1 µM]

# The results go on.
nr	SMILES	RE007 growth inh	NS1 inh	2A StopGo	MARV entry inh
31	O=C(Cc1cccs1)Nc1ccc(F)c(F)c1	-9%	-10%	24%	7%
32	CCn1nc(NC(=O)CC(C)C)c2cc3ccc(C)cc3nc21	-30%	2%	-7%	x
33	CC(=O)NCCc1cc2ccc(C)cc2[nH]c1=O	27%	0%	-4%	1%
34	O=C(NCCn1cccn1)C1CCC(=O)N(CCc2ccc(Cl)cc2)C1 (stereo unspecified)	-9%	11%	-16%	x
35	O=C(CN1C(=O)NC2(CCCC2)C1=O)OCCOc1cccc(Br)c1	5%	x	-12%	-4%[46.1 µM]
36	Cc1c(C(=O)N(Cc2ccc(N(C)C)cc2)Cc2ccco2)oc2cc(Br)ccc12	x	x	-28%	12%[46.1 µM]
37	O=C(CS(=O)(=O)c1ccccc1)N(CCCN1CCOCC1)c1nc2c(F)cccc2s1	16%	x	31%[activator]	u
38	CCC1(CC)NC(=O)N(Cc2nc3ccccc3s2)C1=O	8%	x	-3%	u
39	CCC(=O)NC1CC(=O)N(c2ccc3c(c2)OCCO3)C1 (stereo unspecified)	x	x	-21%	x
40	CCCN1CCN(C(=O)CCCn2c(C)c3cnn(-c4ccccc4)c(=O)c3c2C)CC1	0%	2%	-22%	-5%

nr	SARS PLpro yeast	Cruzain noTriton	Cruzain Triton	Lassa entry inh
31	-5%	x	x	-1%
32	-1%	x	x	x
33	u	4%	2.6%	4%
34	1%	x	x	x
35	-4%	x	x	0%
36	x	-9%	-2.7%	-23%[46.1 µM]
37	4%	x	x	8%
38	0%	x	x	-1%
39	x	4%	0.6%	-5%[46.1 µM]
40	-8%	-10%	0.6%	x

# Overlap with the part before: three entries, followed by the next part.
nr	SMILES	RE007 growth inh	NS1 inh	2A StopGo	MARV entry inh
38	CCC1(CC)NC(=O)N(Cc2nc3ccccc3s2)C1=O	8%	x	-3%	u
39	CCC(=O)NC1CC(=O)N(c2ccc3c(c2)OCCO3)C1 (stereo unspecified)	x	x	-21%	x
40	CCCN1CCN(C(=O)CCCn2c(C)c3cnn(-c4ccccc4)c(=O)c3c2C)CC1	0%	2%	-22%	-5%
41	CC(C)n1nc(C(=O)NCc2ccc3c(c2)OCO3)c2ccccc2c1=O	11%	x	-17%	-5%
42	CCCN(CCC)S(=O)(=O)c1ccc(NC(=O)C2CCCO2)cc1 (stereo unspecified)	-16%	6%	16%	u
43	CC(Sc1nc(-c2ccccc2)cc(=O)[nH]1)C(=O)O (stereo unspecified)	2%	7%	12%	27%
44	CCOC(=O)Cc1csc(NC(=O)/C=C/c2cccc(Br)c2)n1	-3%	x	u	u
45	CC(C)(C)OC(=O)NCCCCCNC(=O)c1[nH]cnc1C(=O)N[C@@H](Cc1ccccc1)C(=O)OCc1ccccc1	-4%	24%	-9%	x
46	COC(=O)c1ccc(NC(=O)Nc2ccc3c(c2)nc(C)n3C)cc1	0%	-1%	16%	u
47	O=C(Nc1ccc(Cl)cc1)C1CCCN(c2ncnc3c2nc2n3CCCCC2)C1 (stereo unspecified)	13%	-42%	-25%	u
48	CC1=C(c2ccc(C(C)C)cc2)S(=O)(=O)N=C1N1CCC(C(=O)NCc2ccc(C)o2)CC1	x	x	-20%	x
49	CC(=O)/C(CN1CCCCC1)=N\O	7%	0%	x	1%
50	O=C(NC1CCCCC1)c1ccc(CS(=O)(=O)Cc2ccccc2F)o1	13%	u	17%	16%
51	COc1ccc(Nc2nccc(-c3ccc(C#N)cc3)n2)cc1	-5%	-4%	-5%	-10%[46.1 µM]

nr	SARS PLpro yeast	Cruzain noTriton	Cruzain Triton	Lassa entry inh
38	0%	x	x	-1%
39	x	4%	0.6%	-5%[46.1 µM]
40	-8%	-10%	0.6%	x
41	-6%	x	x	-17%
42	6%	-5%	-2.1%	u
43	-1%	-4%	0.6%	1%
44	-1%	x	x	u
45	0%	x	x	x
46	0%	x	x	18%[46.1 µM]
47	0%	x	x	u
48	x	20%	-1.1%	1%[46.1 µM]
49	-2%	-9%	2.7%	2%
50	3%	-6%	-2.7%	0%
51	-2%	x	x	13%[46.1 µM]

# High-throughput results: PubChem BioAssay, National Center for Advancing Translational Sciences (NCATS)
